# Screening data deposited in PubChem by National Center for Advancing Translational Sciences (NCATS).
# StopGo FLuc = lowers the firefly signal of an FMDV 2A StopGo reporter. HEK cells with a luciferase reporter of 2A StopGo recoding. Potency, µM (top dose mostly 57.5 µM), inactives show top-dose signal change, negative = less light. 120,000 compounds, 0.23% hits; active = well fitted falling curve with a large enough effect; inconclusive = small, poorly fitted or top-dose-only effect; inactive = no such curve, though single readings can be large or run the other way; note: nearly all actives have a fitted effect of over 60% in size; overnight with compound
# StopGo RLuc = FMDV 2A StopGo reporter, Renilla signal; HEK cells with a luciferase reporter of 2A StopGo recoding; Potency, µM (doses to about 57.5 µM), for the others: at the top dose signal change, negative = less light; 120,000 compounds, 0.32% hits; active means well fitted falling curve with a large enough effect; inconclusive means small, poorly fitted or top-dose-only effect; inactive means no such curve, though single readings can be large or run the other way; note: nearly all actives have a fitted effect of over 55% in size; overnight with compound
# * marks the source's active call; other numbers are inactive results; ? = inconclusive; . = not tested or not shown; & = joins results of further samples; [ ] = remark or other dose. % is set by controls: 0 for no effect and ±100 for the full control effect; potency is the fitted concentration of half-maximal effect.
# Preview, 2 compounds:
# Results follow in this order: StopGo FLuc, StopGo RLuc
Cc1[nH]c(=O)[nH]c(=O)c1CCC(=O)Nc1nc(C(C)C)cs1
 : 68%[activator], -22%
CCN(CC)c1nc2ccccc2nc1C(=O)Nc1cccc(C)c1
 : 1%, 6%

# The whole of this part, previewed entries included:
# Results follow in this order: StopGo FLuc, StopGo RLuc
Cc1[nH]c(=O)[nH]c(=O)c1CCC(=O)Nc1nc(C(C)C)cs1
 : 68%[activator], -22%
CCN(CC)c1nc2ccccc2nc1C(=O)Nc1cccc(C)c1
 : 1%, 6%
O=C(NCCO[N+](=O)[O-])c1cccnc1
 : -12%, -11%
CC1(C(O)(C#CC[N+]2(Cc3ccccc3Cl)CCCCC2)c2ccccc2)CCCC1 (stereo not given)
 : -19%, -12%
N#C/C(=C\c1c[nH]c2ccccc12)C(=O)Nc1ccc(O)cc1
 : 97%[activator], 4%
Cc1nc(NC2CC2)sc1C(=O)NC1CCCC1
 : 21%, -2%
Cc1noc(C)c1CC(=O)Nc1nc(-c2ccc(F)cc2)c(C)s1
 : ?, ?
CCOc1cc(C(=O)Nc2cccc(-c3nc4ccccc4o3)c2)cc(OCC)c1OCC
 : -10%, -8%
COc1cc(OC)cc(-c2cc3nc(C)c(CCC(=O)Nc4ccccc4OC)c(C)n3n2)c1
 : 3.2µM*, -12%
O=c1ccc2ccc(OCc3nc(-c4cccc(Cl)c4)no3)cc2o1
 : 15%, 15%

# Part of the list above in order of heavy-atom count, smallest number first:
# Results follow in this order: StopGo FLuc, StopGo RLuc
O=C(NCCO[N+](=O)[O-])c1cccnc1
 : -12%, -11%
Cc1nc(NC2CC2)sc1C(=O)NC1CCCC1
 : 21%, -2%
N#C/C(=C\c1c[nH]c2ccccc12)C(=O)Nc1ccc(O)cc1
 : 97%[activator], 4%
Cc1noc(C)c1CC(=O)Nc1nc(-c2ccc(F)cc2)c(C)s1
 : ?, ?
O=c1ccc2ccc(OCc3nc(-c4cccc(Cl)c4)no3)cc2o1
 : 15%, 15%
CCOc1cc(C(=O)Nc2cccc(-c3nc4ccccc4o3)c2)cc(OCC)c1OCC
 : -10%, -8%
COc1cc(OC)cc(-c2cc3nc(C)c(CCC(=O)Nc4ccccc4OC)c(C)n3n2)c1
 : 3.2µM*, -12%

# (next part)
# Results follow in this order: StopGo FLuc, StopGo RLuc
COc1ccc(-c2cc(=O)oc3cc4occ(-c5ccc(F)cc5)c4cc23)cc1
 : -6%, 4%
CCCn1c2ccccc2c2cnn(CC(=O)NCCCN(CC)c3ccccc3)c(=O)c21
 : 19%, -3%
COc1ccc(NC(=O)C2=CC(c3cccs3)=NS(=O)(=O)N2C)cc1
 : 33%[activator], 25%
CCOc1ccc(C(CC(=O)Nc2ccc(C(=O)OC)cc2)N2Cc3ccccc3C2=O)cc1OC (stereo not given)
 : -11%, -7%
CN(CC(=O)NC1(C)CCS(=O)(=O)C1)Cc1ccc(Cl)c(Cl)c1 (stereo not given)
 : 3%, 4%
O=C(Cn1c2ncccc2c(=O)n1-c1ccccc1)Nc1ccc(F)c(F)c1
 : -5%, -9%
O=C(Nc1cccc(F)c1)C(=O)c1c[nH]c2ccccc12
 : 86%[activator], 0%
CC1CCN(CCCCNC(=O)CCc2ncc(-c3ccc(F)cc3)o2)CC1
 : -3%, -14%
O=C(Nc1ccc(F)cc1)c1ccc2c(c1)CCC2
 : 140%[activator], 18%
NC(=O)C1(NC(=O)c2ccc(Cl)cc2F)CCCCC1
 : -10%, -5%
CN(C)C(CNS(=O)(=O)c1cccs1)c1ccsc1 (stereo not given)
 : 1%, 10%
Cc1nc(-c2ccc(Cl)cc2)sc1C(=O)N1CCCC(C(=O)O)C1 (stereo not given)
 : 89%[activator], -3%
COc1ccc(-n2c(SCC(=O)N3CCC(C)CC3)nc3c([nH]c4ccccc43)c2=O)cc1
 : 6%, -5%
CSc1ccc(C2CC(=O)N(c3cccc(C(F)(F)F)c3)C3=C2C(=O)OC3)cc1 (stereo not given)
 : -1%, -16%
COc1ccccc1CC(C#N)C(=O)Nc1ccccc1C (stereo not given)
 : 4%, 82%[activator]
O=C(CSc1cc(C(=O)NC2CC2)c2ccccc2n1)NCC1CCCO1 (stereo not given)
 : -15%, -14%
O=c1cc(-c2ccccc2)n2c(SCc3c(F)cccc3Cl)nnc2[nH]1
 : -25%, -13%
COc1cccc(C(=O)Nc2oc3ccccc3c(=O)c2-c2cccc(C)c2)c1
 : -9%, -15%
Fc1cccc(CSc2nc(NCCc3ccccc3)c3ccccc3n2)c1
 : -12%, -19%
Nc1nc2c(ncn2COCCO)c(=O)[nH]1
 : -12%, -9%
Cc1ccc(N2CN(CCN3CCOCC3)Cn3c2nc(C)c(C)c3=O)c(C)c1
 : 59%[activator], 11%
COc1ccc(CCNC(=O)CCS(=O)(=O)c2cc(Br)cc3c2N(C(C)=O)CC3)cc1OC
 : -5%, 5%
CCCCCOc1ccc(C2CC(=O)CC(=O)C2C(=O)OCC)cc1 (stereo not given)
 : 22%, 3%
CCOc1ccc(C(C)=O)cc1CN(C)CC(=O)Nc1ccc(Cl)cc1
 : ?, ?
COc1ccc(C2C=C(c3ccccc3)Nc3nc(NS(=O)(=O)c4ccccc4)nn32)cc1 (stereo not given)
 : 9%, -6%
CCN(CC)c1nc2ccccc2nc1C(=O)Nc1ccccc1F
 : 10%, 10%
CC(C)NC(=O)C(C#N)(Cc1ccc(C#N)cc1)Cc1ccc(C#N)cc1
 : 3%, 30%
Cc1cccc(N2CCN(c3cc(C)nc4c(-c5ccc(Cl)cc5)c(C)nn34)CC2C)c1 (stereo not given)
 : -28%, ?
COc1ccc(N2CCN(S(=O)(=O)c3ccc(CC(C)C)cc3)CC2)cc1
 : -9%, -6%
Cc1ccccc1-c1nnn(CC(=O)Nc2ccc(Cl)c(S(=O)(=O)N3CCOCC3)c2)n1
 : ?, ?
COc1ccc(C(=O)Nc2nc(-c3cc4ccccc4oc3=O)cs2)cc1
 : -5%, -17%
Cc1ccc(NC(=O)N2CCN(c3cc(-c4noc(C)n4)ccc3C)CC2)c(C)c1
 : 11%, -4%
CCC1CCCCN1C(=O)Cn1c(=O)oc2cc(S(=O)(=O)N3CCCCC3)ccc21 (stereo not given)
 : -7%, 18%
CCN(CC)S(=O)(=O)c1ccc2c(c1)N(CC(=O)N(C)Cc1ccccc1)C(=O)CO2
 : -3%, 4%
Cc1ccc(CNC(=O)CN2C(=O)CCn3nc(-c4ccccc4)cc32)cc1
 : -8%, -19%
CCOC(=O)N1CCN(C(=O)CNC(=O)c2cc3c(OC)cc(OC)cc3n2C)CC1
 : -13%, -3%
Cc1cc(F)cc(CC(=O)O)c1
 : 2%, 6%
COc1ccc(S(=O)(=O)Oc2ccc3c(c2)O/C(=C\c2cc(OC)c(OC)c(OC)c2)C3=O)cc1
 : 0%, 11%
CC(C)(C)OC(=O)Nc1ccc(CC(=O)N2CCCC2c2ccsc2)cc1 (stereo not given)
 : 131%[activator], 17%
CN(CCO)c1nc(-c2cccnc2)nc2ccccc12
 : 50%[activator], 28%

# Random excerpt: two records from the list.
# Results follow in this order: StopGo FLuc, StopGo RLuc
COc1ccc(-c2cc(=O)oc3cc4occ(-c5ccc(F)cc5)c4cc23)cc1
 : -6%, 4%
CC(C)NC(=O)C(C#N)(Cc1ccc(C#N)cc1)Cc1ccc(C#N)cc1
 : 3%, 30%

# Following part:
# Results follow in this order: StopGo FLuc, StopGo RLuc
Cc1cc(Cl)ccc1NC(=O)CN1C(=O)C(=O)c2ccccc21
 : 4%, -7%
COCCCN1CN=C(NS(=O)(=O)c2ccc(NC(C)=O)cc2)NC1
 : -8%, -5%
CC(C)Cn1c(COc2ccccc2Cl)n[nH]c1=S
 : -6%, 1%
COc1ccc(C(=O)NCC(=O)OCc2cc(=O)n3nc(C4CCCCC4)sc3n2)cc1
 : -1%, -10%
Cc1occc(=O)c1OCc1noc(C(=O)NCc2cccc(Cl)c2)n1
 : 9%, 1%
CCN(CC)C(=O)COC(=O)c1ccccc1-c1ncc(-c2ccc(F)cc2)o1
 : 82%[activator], 16%
COc1ccc(-c2cc3ccc(OS(C)(=O)=O)cc3oc2=O)cc1
 : 209%[activator], 19%
CNC(=S)N/N=C(/C)c1ccccn1
 : ?, ?
O=c1n(Cc2ccccc2)nc2n1-c1cc(Cl)ccc1OC2
 : 0%, 27%
COc1cc(Cl)c(C)cc1Nc1nnc(-n2nc(C)cc2C)c2ccccc12
 : 1%, -3%
Cc1c(CC(=O)Nc2nc3ccccc3[nH]2)c(=O)oc2c(C)c(O)ccc12
 : ., 535%[activator]
C=CCN(CC(=O)NC(N)=O)Cc1ccccc1
 : -3%, 5%
C[C@H](O)[C@@H]1C(=O)N2CCc3c([nH]c4c(-c5ccc6c(c5)OCO6)cccc34)[C@@H]2C[C@@H]1N(C)C(=O)OCc1ccccc1
 : -19%, ?
CCCOC(=O)CSc1ncnc2sc3c(c12)CCC(C)C3 (stereo not given)
 : -10%, -2%
CCc1cc(=O)oc2c(C)c3c(cc12)CN(CCc1ccccc1OC)CO3
 : -9%, -8%
Cc1nc2ccn(Cc3ccco3)c(=O)c2cc1C(=O)Nc1ccc(F)cc1
 : -18%, -3%
CCNC(CC)c1ccc(C)cc1 (stereo not given)
 : 16%, 9%
CCc1nc(SCC(=O)Nc2ccc(Br)cc2)c2c3c(sc2n1)COC(C)(C)C3
 : -7%, -7%
COc1ccccc1CN1CCC(C)CC1
 : -4%, -20%
O=C(COc1ccccc1)NCc1ccc2c(c1)CCN2C(=O)c1ccc(Cl)cc1
 : 2%, -1%
Cc1cccc(CC(=O)N2CC(=O)Nc3ccc(Br)cc3C2c2ccc(F)cc2)c1 (stereo not given)
 : -26%, 14%
COc1ccccc1C(=O)NC1(C(F)(F)F)C(=O)NC(C)=C1C#N (stereo not given)
 : 0%&10%, 8%&1%
Cc1[nH]c2ccc(C(=O)Nc3ccc(F)cc3)cc2c1C
 : 106%[activator], -15%
Cc1ccc(S(=O)(=O)NC(CN(C)C)c2ccccc2)c(Br)c1 (stereo not given)
 : 133%[activator], 40%[activator]
COc1ccccc1CNC(=O)CCC1N=C2c3ccccc3N=C(SCc3ccccc3Cl)N2C1=O (stereo not given)
 : -12%, 6%
Cn1c2ccccc2c2cnn(CC(=O)Nc3ccccc3F)c(=O)c21
 : -4%, -10%
N#C/C(=C\c1ccccc1)C(=O)Nc1sc2c(c1C(N)=O)CCC2
 : 25%, 2%
COc1ccc(C)cc1NC(=O)CN1C(=O)COc2ccc(S(=O)(=O)N3CCCCCC3)cc21
 : -14%, 41%[activator]
O=C1OC2C3CC(C2Sc2ccc(Cl)cc2)C(C(=O)O)C13 (stereo not given)
 : 0%, 7%
CCOc1ccc(CCNC(=O)c2ccc(C)c(-n3c(C)nc4cccnc43)c2)cc1OCC
 : -26%, -18%
CCCOc1ccc(CNC(=O)C2CCN(C(=O)c3sccc3-n3cccc3)CC2)cc1
 : -3%, 3%
Cc1ccc(C(=O)CSc2nc3cc(C(=O)NC4CCCC4)ccc3c(=O)n2CC2CCCO2)c(C)c1 (stereo not given)
 : -16%, 2%
O=C(CS(=O)(=O)c1ccc2ccccc2c1)c1ccc(Br)cc1
 : 18%, 113%[activator]
Cc1cc(C)cc(OCc2cc(=O)n3cc(C)sc3n2)c1
 : -18%, -12%
Cc1cc(Cl)ccc1OCC(=O)N(Cc1ccco1)Cc1ccco1
 : 4%, 23%
CCc1ccccc1NC(=O)c1ccc(F)c(S(=O)(=O)N2CCN(c3ccccc3OC)CC2)c1
 : -8%, -6%
O=C(NC1CCCCCC1)C1CCC(Cn2cnnn2)CC1 (stereo not given)
 : 14%, -10%
Nc1nccnc1C(=O)NCCc1cccs1
 : 261%[activator], 29%
COC(=O)c1ccc(/C=C2\Oc3cc(OS(C)(=O)=O)ccc3C2=O)cc1
 : -2%, 5%
O=C(CSc1nnc(-c2ccncc2)n1-c1ccccc1)Nc1ccc(Cl)c(Cl)c1
 : -9%, -10%
COc1cccc(-n2c(=O)c3sc4ccccc4c3n(CC(=O)NC3CCCCC3)c2=O)c1
 : 0%, -6%
COc1ccccc1NS(=O)(=O)c1ccc(-c2coc(C)n2)cc1
 : -8%, 40%[activator]
OCCCCCCCCCCCCCCCO
 : -6%, -12%
COc1cc(-c2nc3ccccc3s2)cc(OC)c1OC
 : 155%[activator], 35%[activator]
Cc1ccc(CNC(=O)c2cc(Sc3ccc(F)cc3F)nc3ccccc23)cc1
 : -15%, -9%
NC(=O)C1CCN(C(=O)c2cc(-c3ccccc3)nc3ccccc23)CC1
 : 28%, 103%[activator]
CC(=O)c1ccc(OCC(O)CN2CCCN(c3ccc(C(F)(F)F)cn3)CC2)cc1 (stereo not given)
 : -19%, -28%
O=C1Nc2ccccc2C1Cc1nc2ccccc2c(=O)n1-c1ccccc1 (stereo not given)
 : -18%, -12%
COc1cc2c(cc1OC)C(c1ccc(F)cc1)N(c1ccc(F)cc1)C(=O)C2 (stereo not given)
 : -3%, 14%
CCN(C(=O)c1cc2c(s1)-c1c(C)cccc1OC2)c1ccccc1F
 : 46%[activator], 8%

# Some values from above.
# `NC(=O)C1CCN(C(=O)c2cc(-c3ccccc3)nc3ccccc23)CC1` – StopGo RLuc = 103%[activator]
# `OCCCCCCCCCCCCCCCO` – StopGo RLuc = -12%

# New compounds follow:
# Results follow in this order: StopGo FLuc, StopGo RLuc
COc1ccc(CCN2CCC(Nc3nc4ccccc4n3Cc3ccc(F)cc3)CC2)cc1
 : 1%[11.5 µM], -14%
Cc1ccc(OCC(=O)Nc2ccc(OCc3cc(=O)n4ccsc4n3)cc2)cc1C
 : -13%, 0%
CCOC(=O)c1sc(NC(=O)C2CC(=O)N(c3ccc(C)c(C)c3)C2)nc1C (stereo not given)
 : -4%, -4%
Cn1c(=O)c2c(ncn2CC(=O)Nc2ccc(F)c(F)c2)n(C)c1=O
 : 10%, 1%
